Source: PubChem BioAssay
HCMV NEC inh: cytomegalovirus nuclear egress complex inhibition; HTRF UL50-UL53 interaction, normalized percent inhibition; inhibition, % (concentration not given with the values); 190,000 compounds, 0.15% hits; AID 1918969;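 active means both replicates at 50% or more, plus weaker picks with an unusually low signal ratio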;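 further: stock transfer was 100 nL into about 20 µL; 0% = negative control wells and 100% = wells with untagged competitor protein; inactives centre near -12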
GIV-Gai inh: GIV-Galpha-i interaction inhibition. Galpha-i3/FITC-GIV peptide fluorescence polarization, 90 min; hits give low values; scaled: aluminum fluoride 0%, vehicle 100%. percent of control (FP), % (test concentration not listed). 210,000 compounds, 0.42% hits. AID 1224905;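 active means replicate mean at 85% of control or lower, very high polarization wells dropped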;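 further: wells of about 15 µL received 100 nL stock; the first replicate is given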
Target sequence (P08753 whole entry, looked up): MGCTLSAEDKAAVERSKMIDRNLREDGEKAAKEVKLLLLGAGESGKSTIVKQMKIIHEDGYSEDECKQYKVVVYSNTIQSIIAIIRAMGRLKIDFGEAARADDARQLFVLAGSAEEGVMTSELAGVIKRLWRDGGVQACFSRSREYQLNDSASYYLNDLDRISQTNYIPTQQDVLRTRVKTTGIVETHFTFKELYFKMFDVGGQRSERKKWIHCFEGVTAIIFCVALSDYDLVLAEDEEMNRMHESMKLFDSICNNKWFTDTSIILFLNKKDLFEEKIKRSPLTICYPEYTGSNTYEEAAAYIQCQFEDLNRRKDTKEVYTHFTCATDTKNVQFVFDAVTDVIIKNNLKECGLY
Sa growth 42C: S. aureus growth inhibition. relative growth, % (no concentration beside the values). S. aureus RN4220 growth, OD600, 20 h, 42 °C; hits give low values. AID 720641. 170,000 compounds, 0.53% hits;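 active means growth at 42 °C up to 50% and 20 or more points under that at 30 °C, or under 10% at both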;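 further: 300 nL library stock went into each well; scaled to the means of positive and negative controls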
Sa growth 42C second temp: recorded beside Sa growth 42C, whose call it bears; relative growth, %; measured here: growth at 30 °C;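 optical density after 20 h as mean of two plates; 100% = untreated growth and lower means inhibition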
* marks the source's active call; other numbers are inactive results; nt = not tested or not shown; & = joins results of further samples.

SMILES | HCMV NEC inh | GIV-Gai inh | Sa growth 42C | Sa growth 42C second temp
Cc1ccc(NC(=O)CC(=O)O)cc1 | -9 | 105 | 111 | 89
N#Cc1ccc(OCC(=O)NC2CCCCCC2)cc1 | -17 | nt | 100 | 85
Cc1ccccc1OCC(=O)Nc1cc2c(cc1N1CCCCC1)n(C)c(=O)c(=O)n2C | -2 | 106 | nt | nt
COc1ccc(-c2noc(-c3cccc(OCC(=O)NC4CCCC4)c3)n2)cc1 | -5 | 108 | nt | nt
Cn1c(=O)c2c(SCCN3CCCC3)nc(C3CCCC3)nc2n(C)c1=O | -21 | 112 | 72 | 77
COc1ccc2nc(NC(=O)c3ccc(CN4CCN(Cc5ccccc5)C4=O)cc3)sc2c1 | -15 | 101 | nt | nt
CC(C)=CCOc1cc(C)cc2oc(=O)cc(-c3ccccc3)c12 | nt | 100 | 100 | 96
O=C(CCS(=O)(=O)c1cccc2nonc12)NCc1ccc(Cl)cc1 | nt | 94 | 104 | 84
Brc1ccc(OCc2nnc3sc(-c4ccncc4)nn23)cc1 | -18 | 101 | nt | nt
CCC(C(=O)Nc1cc(Cl)ccc1OC)n1nnc(C(=O)O)c1C(=O)O (stereo not given) | -23 | 103 | nt | nt
COc1ccc(Cl)cc1NC(=O)C1CCN(c2nnc(C)c3c(C)n(-c4ccccc4)nc23)CC1 | nt | 106 | 86 | 92
CC(C)=Cc1c(O)nc2ccccn2c1=O | -8 | nt | 84 | 91
Cc1nn(C(=O)C2CC2)c(C)c1Sc1ccccc1 | -22 | nt | 107 | 97
c1ccc(-c2cc(-c3ccccc3)n3ncnc3n2)cc1 | -6 | nt | 123 | 92
COc1ccc(S(=O)(=O)NCc2ccc(C(=O)NCCc3ccc(Cl)cc3)cc2)cc1 | 7 | 102 | nt | nt
CC(C)OC(=O)CN1CCN(c2ccc(Cl)cc2)CC1 | -13 | 105 | 94 | 85
O=C1c2cccnc2C(=O)N1CCc1ccc(S(=O)(=O)N2CCN(Cc3ccccc3)CC2)cc1 | -12 | 104 | nt | nt
CSc1c(C#N)c(N)nc2sc(C(=O)c3ccc(Cl)c(Cl)c3)c(N)c12 | 5 | 128 | 90 | 86
COC(=O)c1sc(N)c(C(=O)OC)c1Cn1nnc(-c2ccccc2)n1 | 1 | nt | 117 | 102
COC(=O)c1cc(CSc2nc3ccccc3n2CCC#N)oc1C | 7 | nt | 101 | 91
CCC(=O)Nc1ccc(C)cc1-c1nnc(SC(CC)C(=O)Nc2c(C)cc(C)cc2C)[nH]c1=O (stereo not given) | -32 | 94 | nt | nt
Cc1cc(C(O)(C(F)(F)F)C(F)(F)F)c(C)n1-c1ccccc1 | -29 | nt | 100 | 66
COc1cc(NC(=O)C2CCCCC2)c(OC)cc1NC(=O)CCC(=O)NCc1ccco1 | -27 | 103 | 104 | 89
CCC(C)NC(=O)C1CCCN(c2ccnc(-c3ccc(F)cc3)n2)C1 (stereo not given) | -26 | 105 | nt | nt
CCN1CCN(CCCNC(=O)c2ccc3c(=O)n4c(nc3c2)CCCCC4)CC1 | -11 | 104 | 97 | 90
COc1ccc(OC)c(/C=C/C(=O)Nc2cc(C(N)=O)cc(C(N)=O)c2)c1 | -22 | nt | 75 | 83
Cn1c(O)c(C=NC(Cc2c[nH]c3ccccc23)C(=O)O)c(=O)n(C)c1=O (stereo not given) | 8 | 136 | 97 | 103
COc1ccc(C(CC(=O)NCc2ccc(C)cc2)N2Cc3ccccc3C2=O)cc1OC (stereo not given) | nt | 100 | 110 | 84
CC(C)C1C(C#N)=C(N)Oc2c1oc(CO)cc2=O (stereo not given) | -16 | 103 | 105 | 93
CCc1ccc(-n2c(=O)c3c4c(sc3n(CC(=O)c3ccc(Cl)cc3)c2=O)CCC4)cc1 | 17 | 107 | 98 | 107
COc1cc(-c2nc3ccc(Cl)cn3c2NC(C)(C)C)ccc1O | -8 | 101 | 121 | 110
CCc1ccc2occ(CC(=O)Nc3c(C(=O)Nc4ccc(C)cc4)oc4ccccc34)c2c1 | 1 | 114 | 91 | 90
Cc1nn(C(N)=S)c2c1CC(COCCC(C)C)O2 (stereo not given) | nt | 104 | 80 | 53
COc1ccc(CN2C(=O)CC(C(=O)Nc3ccc(C(=O)O)cc3)SC2=Nc2ccc(Cl)cc2)cc1 (stereo not given) | -30 | 103 | nt | nt
c1ccc(Cc2nc3ccccc3[nH]2)cc1 | -6 | nt | 104 | 94
Cc1ccc(Nc2ccc3noc4c3c2C(=O)c2ccccc2-4)cc1 | nt | 128 | 87 | 89

3 structures already listed, sorted by number of heavy atoms, low to high:
SMILES | HCMV NEC inh | GIV-Gai inh | Sa growth 42C | Sa growth 42C second temp
Cc1nn(C(N)=S)c2c1CC(COCCC(C)C)O2 (stereo not given) | nt | 104 | 80 | 53
CCc1ccc(-n2c(=O)c3c4c(sc3n(CC(=O)c3ccc(Cl)cc3)c2=O)CCC4)cc1 | 17 | 107 | 98 | 107
COc1ccc(CN2C(=O)CC(C(=O)Nc3ccc(C(=O)O)cc3)SC2=Nc2ccc(Cl)cc2)cc1 (stereo not given) | -30 | 103 | nt | nt

In a second layout: entries from further up.
Below each compound – HCMV NEC inh, GIV-Gai inh, Sa growth 42C, Sa growth 42C second temp
Cc1nn(C(N)=S)c2c1CC(COCCC(C)C)O2 (stereo not given)
 : nt, 104, 80, 53
CC(C)C1C(C#N)=C(N)Oc2c1oc(CO)cc2=O (stereo not given)
 : -16, 103, 105, 93
CCN1CCN(CCCNC(=O)c2ccc3c(=O)n4c(nc3c2)CCCCC4)CC1
 : -11, 104, 97, 90
Cn1c(O)c(C=NC(Cc2c[nH]c3ccccc23)C(=O)O)c(=O)n(C)c1=O (stereo not given)
 : 8, 136, 97, 103
COc1ccc(C(CC(=O)NCc2ccc(C)cc2)N2Cc3ccccc3C2=O)cc1OC (stereo not given)
 : nt, 100, 110, 84
COc1ccc(CN2C(=O)CC(C(=O)Nc3ccc(C(=O)O)cc3)SC2=Nc2ccc(Cl)cc2)cc1 (stereo not given)
 : -30, 103, nt, nt

(cont.)
SMILES | HCMV NEC inh | GIV-Gai inh | Sa growth 42C | Sa growth 42C second temp
Cc1ccccc1Cn1c(SCc2ccc(C(=O)NC3CCCC3)cc2)nc2ccncc21 | -18 | 95 | 113 | 82
Cc1cc(OCC(=O)Nc2ccccc2N2CCN(C(=O)C(C)C)CC2)cc(C)c1Cl | -12 | 110 | 106 | 99
CCOc1ccc(C(=O)NCc2ccc3c(c2)CCN3C(=O)c2ccc(Cl)cc2)cc1 | nt | 103 | 89 | 90
Cc1onc(-c2ccccc2Cl)c1C(=O)Nc1ccccc1C(=O)O | -6 | 97 | nt | nt
Cc1c(C)n(C)c2ccc(C(=O)N3CCN(c4ccccc4)CC3)cc12 | nt | 106 | 92 | 78
Cc1cccc(-c2nc(CS(=O)CC(=O)NC3CCCCCC3)c(C)o2)c1 (stereo not given) | nt | 95 | 96 | 92
COc1ccc(N2C(=O)NC(=O)/C(=C\c3ccc(OCC(=O)O)c(Br)c3)C2=O)cc1 | -17 | 96 | nt | nt
CCc1ccc(NC(=O)CSc2ccc3nc(-c4ccc(OC)cc4)cn3n2)cc1 | nt | 109 | 101 | 82
Cc1cc2nc3c(=O)[nH]c(=S)[nH]c3nc2cc1NC(=O)C(F)(F)F | -102 | 107 | 82 | 64
O=C(Cn1cc(C(=O)C2CCCCC2)c2ccccc21)Nc1ccccc1 | nt | 106 | 115 | 77
CC(C)COC(=O)C1C2C=CC3(CN(Cc4cccs4)C(=O)C13)O2 (stereo not given) | nt | 105 | 103 | 99
O=C(NC(C(F)(F)F)C(F)(F)F)OCc1ccccc1 | nt | 99 | 100 | 78
CC(C)N(C(=O)CSc1nnnn1C1CCCC1)C(C)C | 2 | 100 | 108 | 90
COc1ccc(C(CNC(=O)COc2ccccc2OC)N2CCCCC2)cc1 (stereo not given) | 3 | 108 | nt | nt
CCCCN(C)C(=O)Cn1nc(C)c2c(C)n(-c3ccccc3)nc2c1=O | -11 | 114 | 105 | 99
O=C(CSc1nnc2sc3ccccc3n12)NCC(F)(F)F | -6 | nt | 86 | 92
CC1(CCC#N)N=C(SCCC#N)N(c2ccccc2)C1=O (stereo not given) | -2 | 96 | 109 | 82
O=C(NNc1ccccc1)c1ccccc1 | -10 | 105 | 101 | 82
C=CCNC(=O)CN1C(=O)COc2ccc(C(=O)N(CC)CC)cc21 | -22 | 99 | nt | nt
COc1ccc(C)cc1-n1c(SCC#N)nc2sc(C)c(C)c2c1=O | -5 | nt | 86 | 97
O=C(CSc1cccc[n+]1[O-])Nc1ccccc1 | -28 | nt | 97 | 90
CCCc1c(C(=O)Sc2ccc(Cl)cc2)cnn1-c1ccccc1 | -32 | 103 | 100 | 91
CCC(=O)Oc1ccc(C(=O)N2CCCCC2)cc1 | -18 | 104 | 95 | 100
COc1ccc(-c2nn3c(NCCN(C)C)cc(C)nc3c2C)cc1OC | -7 | 111 | nt | nt
CC(C)C(OC(=O)c1ccco1)C(=O)NCc1ccccc1 (stereo not given) | -25 | 100 | 90 | 84
Cc1ccc(CN2CCCn3nc(C(=O)NCc4ccccc4Cl)cc3C2=O)cc1 | nt | 98 | 101 | 90
CC1CCN(c2ncnc3c2cnn3Cc2ccc(Cl)cc2)CC1 | -12 | 102&95 | 100 | 90
CC(=O)Nc1ccc2c(CSc3nncs3)cc(=O)oc2c1 | -76 | nt | 97 | 94
O=C(NCCS(=O)(=O)N1CCN(c2ccccc2F)CC1)C1CC(=O)N(c2ccc(F)cc2)C1 (stereo not given) | nt | 114 | 95 | 99
CN1C(=O)C(=Cc2nc3ccccc3c(=O)n2Cc2ccccc2)c2cc(Br)ccc21 | -22 | 106 | nt | nt
Cc1cccc(/C=C2\SC(=O)N(C)C2=O)c1 | -54 | 102 | 102 | 97
CN(C)C=NC(=O)c1sc(S(C)(=O)=O)c2c1CCC=C2 | -35 | 93 | 100 | 95
Cc1noc(/C=C/c2ccco2)c1S(=O)(=O)N1CCC(C(=O)O)CC1 | nt | 107 | 107 | 82
Cc1ccc(CNc2ccc(Cl)cc2)s1 | -17 | 102 | 99 | 81
CCOC(=O)c1c(NC(C)=O)c2c3c(sc2n1CC(=O)Nc1cccc(OC)c1)CCCC3 | 4 | 104 | nt | nt
O=C(CCn1cnc2onc(-c3cccc(F)c3)c2c1=O)NCc1ccccc1 | 6 | 109 | nt | nt
Cc1ccc2c(c1)N(CCCC(=O)Nc1cccc3nsnc13)C(=O)CO2 | -20 | 102 | nt | nt
COc1cc(C2NC(=O)NC(C)=C2C(=O)OCC2CCCCC2)cc(Cl)c1O (stereo not given) | -2 | 101 | nt | nt
CCCCc1nc2sc3c(=O)[nH]cnc3c2c2c1CCCC2 | 2 | 99 | 100 | 97
CCOC(=O)c1ccc(NC2CCCc3c2[nH]c2ccc(C)cc32)cc1 (stereo not given) | nt | 101 | 104 | 104
CNS(=O)(=O)c1cn(CC(=O)N2CCc3ccccc32)cc1S(=O)(=O)NC | -18 | 105 | 95 | 95
CC(Sc1nncn1C)C(=O)Nc1ccc(S(N)(=O)=O)cc1 (stereo not given) | 7 | nt | 90 | 96
CCN(C(=O)c1cnccc1C(F)(F)F)c1ccc(Cl)cc1Cl | -21 | 110 | 86 | 90
CC(C)c1ccc(C2CC(=O)Nc3cc4c(cc32)OCCO4)cc1 (stereo not given) | -5 | 102 | 122 | 93
CN(C)Cc1cc2ccccc2[nH]1 | -9 | nt | 115 | 80
Nc1c(-c2nc(-c3ccc4c(c3)OCO4)no2)nnn1-c1ccc(C(F)(F)F)c(Cl)c1 | -74 | 103 | 101 | 93
Cc1cc(N2CCN(C)CC2)n2nc(-c3ccccc3)c(C)c2n1 | 6 | 110 | nt | nt
CCNS(=O)(=O)c1ccc(-c2oc3cc(S(=O)(=O)NCC)ccc3c2Cl)cc1 | -48 | 110 | 94 | 71
Cc1ccc(NC(=O)CS(=O)(=O)c2ccc3c(c2)S(=O)(=O)N=CN3)cc1 | -28 | 109 | nt | nt
CN(C1CCCCC1)S(=O)(=O)c1ccc(C(=O)Nc2nnc(-c3cccnc3)o2)cc1 | -36 | 104 | 2.3* | 8.1*
CCc1nnc(-c2cc(S(=O)(=O)N3CCC4(CC3)OCCO4)c[nH]2)o1 | -11 | 100 | nt | nt
COc1ccccc1NC(=O)c1cc(=O)[nH]c2ccccc12 | -32 | nt | 162 | 91
N#Cc1ccc(S(=O)(=O)N2CCN(S(=O)(=O)c3cccs3)CC2)cc1 | -2 | nt | 92 | 95
CC(C)N(C(=O)CSc1nc(=O)n2ccccc2n1)C(C)C | -21 | 101 | 101 | 86
O=C(COC(=O)c1cc2c(s1)CCC2)c1ccc[nH]1 | -31 | nt | 95 | 83
CCC(CC)NC(=O)CN1C(=O)C2CC=CCC2C1=O (stereo not given) | -17 | nt | 96 | 90
Cc1ccc2onc(CNC(=O)Nc3cccc(C(F)(F)F)c3)c2c1 | -14 | 99 | 87 | 94
COc1cccc(-c2nnc(-c3ccccc3NC(=O)c3ccc(F)cc3F)o2)c1 | -19 | 104 | 84 | 96
O=C(Nc1ccc2oc(-c3cc(Br)ccc3Cl)nc2c1)c1cc2ccccc2o1 | -10 | 109 | 104 | 103
C=CCNc1cc(-c2ccccc2)nc2nncn12 | nt | 106 | 112 | 78
COCCNS(=O)(=O)c1cc(Br)cc2c1N(C(C)=O)CC2 | -9 | 100 | 93 | 79
CC(C)Cc1nn2c(=O)cc(COC(=O)c3cccc(NC(=O)CCc4ccccc4)c3)nc2s1 | nt | 102 | 96 | 81
Cc1c(C(=O)Nc2ccc(F)cc2F)sc2ncnc(N(C)c3ccccc3)c12 | nt | 103 | 106 | 93
